# YopH PTP inh: inhibitors of Yersinia enterocolitica YopH tyrosine phosphatase; inhibition, %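 (about 10 µM by stock and volumes)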; AID 898; fluorescence Ex485/Em525; actives 0.16% (n = 140,000);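 active = inhibition of 50% or more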;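 note: controls were vehicle for no effect and minimum signal wells for full effect; inactives centre near -20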
# Mtb bLac sens: beta-lactam sensitization of Mtb H37Rv | inhibition, % at 25 µM | actives 0.27% (n = 330,000) | M. tuberculosis H37Rv growth with meropenem, percent inhibition; hits of this screen are not shown here | AID 434955;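 active = about 74% or more and at least 40 points above the plate without the antibiotic, then above 30% in a dose series; inconclusive = first-round hits that could not be retested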;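 note: growth measured after seven days incubation then overnight dye step; 0% = bacteria only wells and 100% = bacteria with antibiotic; twin plates without the antibiotic show which effects depend on it; some results filed as inactive read as strong as hits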
# Mtb H37Rv: M. tuberculosis H37Rv growth inhibitors, H37Rv strain (AID 1626); inhibition, % at 10 µM; hits with a dose series show IC50 in µM; actives 0.95% (n = 220,000); M. tuberculosis H37Rv growth inhibition; higher % means a stronger effect;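 active = confirmed in a dose series; inconclusive = inhibition above 80% but not taken into the dose series; inactive = below 80% or under 30% at every dose of the series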;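 note: bacteria incubated seven days before Alamar blue readout; 0% = bacteria only wells and 100% = bacteria with antibiotic wells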
# RecA intein inh: inhibitors of M. tuberculosis RecA intein splicing; P9WHJ3; cell-free RecA intein splicing, fluorescence; inhibition, %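 (about 9 µM by stock and volumes)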; actives 0.75% (n = 290,000); in the data active = inhibition above about 30%; inconclusive = no clear call, values can overlap the other calls;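 note: 0% = vehicle wells and 100% = reference inhibitor control wells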
# Target sequence (P9WHJ3 whole entry, looked up): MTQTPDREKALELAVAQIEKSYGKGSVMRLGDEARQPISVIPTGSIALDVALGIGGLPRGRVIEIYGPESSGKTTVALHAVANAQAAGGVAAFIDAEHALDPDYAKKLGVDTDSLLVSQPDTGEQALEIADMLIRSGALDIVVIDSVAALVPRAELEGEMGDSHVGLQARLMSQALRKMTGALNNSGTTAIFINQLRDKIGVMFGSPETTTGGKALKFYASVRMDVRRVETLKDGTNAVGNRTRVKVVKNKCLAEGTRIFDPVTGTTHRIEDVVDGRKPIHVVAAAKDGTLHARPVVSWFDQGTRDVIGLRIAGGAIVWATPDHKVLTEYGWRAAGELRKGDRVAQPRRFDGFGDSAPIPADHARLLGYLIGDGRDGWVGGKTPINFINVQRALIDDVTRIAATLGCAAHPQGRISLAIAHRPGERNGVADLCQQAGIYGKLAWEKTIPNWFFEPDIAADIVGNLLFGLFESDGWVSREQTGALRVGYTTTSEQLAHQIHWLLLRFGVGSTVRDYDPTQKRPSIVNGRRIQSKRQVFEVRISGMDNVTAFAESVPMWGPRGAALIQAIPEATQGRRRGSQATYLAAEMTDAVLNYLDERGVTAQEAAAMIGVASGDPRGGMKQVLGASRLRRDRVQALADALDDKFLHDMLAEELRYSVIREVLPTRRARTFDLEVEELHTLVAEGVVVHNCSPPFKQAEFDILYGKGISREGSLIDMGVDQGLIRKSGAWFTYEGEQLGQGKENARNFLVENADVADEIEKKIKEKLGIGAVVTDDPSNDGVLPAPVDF
# Arbovirus inh: blocks arbovirus infection; arbovirus infection cell-based antiviral screen; inhibition, % at 10 µM; actives 0.37% (n = 200,000); AID 1251;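 active = inhibition from about 30%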;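 note: bluetongue infection of BSR cells; cell survival read as ATP light after 72 h; 0% = infected wells without compound and 100% = uninfected wells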
# Arbovirus inh repeat: also measured in Arbovirus inh; calls as there; inhibition, %; measured here: 10K subset replicate screen; many hits read low in the repeat;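 first of two repeat runs on a subset; 0% = infected and 100% = uninfected wells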
# Starred values were filed as active, the others as inactive; u = inconclusive; x = not tested or not shown. Some of the compounds tested (hit frequency here may not be typical).
SMILES,YopH PTP inh,Mtb bLac sens,Mtb H37Rv,RecA intein inh,Arbovirus inh,others
COc1ccc(-n2c(SCC3CNC(=O)O3)nnc2-c2ccc(Cl)cc2)cc1 (stereo unspecified),-24,5,2%,-2.3,-2,
O=C(O)CCN1C(=O)CC2(CCCCC2)C1=O,-4,5,0%,0.4,1,
O=C(NNS(=O)(=O)c1ccc(Br)cc1)NC1CCCCC1,-28,4,8%,1.4,0,
COC(=O)c1cc(C#N)c(Oc2ccc(F)cc2)nc1C,-52,-1,2%,0.2,3,
O=C(CNC(=O)C1COc2ccccc2O1)N/N=C/c1cc(Br)c(O)c(Br)c1 (stereo unspecified),x,11,x,3.1,x,
COCc1cc(C)nc(N2CCN(c3ccccc3)CC2)c1C#N,-8,-1,-19%,1.4,-10,Arbovirus inh repeat=-7
COc1ccc(C2C3=C(OC(C)=O)c4ccccc4C3=Nc3c2c(=O)n(C)c(=O)n3C)cc1 (stereo unspecified),-14,65,-14%,0.6,2,
COc1ccc(C)cc1NC(=O)NNS(=O)(=O)c1ccc(NC(C)=O)cc1,x,-18,x,-1.3,x,
Cc1ccc(S(=O)(=O)c2cn(C)c3cc(N4CCN(C)CC4)c(F)cc3c2=O)c(C)c1,x,u,x,9.5,x,
CC1CC(C)CN(S(=O)(=O)c2ccc(NC(=O)C3COc4ccccc4O3)cc2)C1 (stereo unspecified),-38,0,-9%,4.9,-4,Arbovirus inh repeat=0

# Ordered by number of heavy atoms (descending): 5 of the compounds above.
SMILES,YopH PTP inh,Mtb bLac sens,Mtb H37Rv,RecA intein inh,Arbovirus inh,others
COc1ccc(C2C3=C(OC(C)=O)c4ccccc4C3=Nc3c2c(=O)n(C)c(=O)n3C)cc1 (stereo unspecified),-14,65,-14%,0.6,2,
CC1CC(C)CN(S(=O)(=O)c2ccc(NC(=O)C3COc4ccccc4O3)cc2)C1 (stereo unspecified),-38,0,-9%,4.9,-4,Arbovirus inh repeat=0
O=C(CNC(=O)C1COc2ccccc2O1)N/N=C/c1cc(Br)c(O)c(Br)c1 (stereo unspecified),x,11,x,3.1,x,
COCc1cc(C)nc(N2CCN(c3ccccc3)CC2)c1C#N,-8,-1,-19%,1.4,-10,Arbovirus inh repeat=-7
O=C(O)CCN1C(=O)CC2(CCCCC2)C1=O,-4,5,0%,0.4,1,

# (cont.)
SMILES,YopH PTP inh,Mtb bLac sens,Mtb H37Rv,RecA intein inh,Arbovirus inh,others
CN(C)c1cccc2c1c(NC(=O)c1ccc(F)cc1)nn2C,x,2,0%,-3.1,x,
COc1ccc(C(C)NC(=O)C2C(=O)NC3(C)CC2c2ccccc2O3)cc1 (stereo unspecified),-22,-2,-3%,-2.7,6,
O=C(COc1ccc(S(=O)(=O)N2CCOCC2)cc1)Nc1ccccc1F,x,-3,x,0.7,x,
CSCCC(NC(=O)COc1ccccc1)C(=O)O (stereo unspecified),x,7,2%,1.5,-1,
CSC(=NC#N)N1CCN(c2ccccc2)CC1,-7,4,-9%,2.3,2,
Cc1cc(OCCN2CCCCCC2)ccc1[N+](=O)[O-],-10,10,1%,-2.5,-6,
CCCC(C)C(=O)OCC(=O)Nc1c(Br)cc(C)cc1Br (stereo unspecified),-32,19,16%,-2.4,9,
O=[N+]([O-])c1ccc(N2CCN(S(=O)(=O)c3ccccc3)CC2)cc1NCc1cccnc1,-29,-5,-8%,1.4,-2,
COc1ccc(-c2[nH]ncc2CNCCCSC)cc1F,x,-4,-2%,8.6,0,
CN(C)/C=C/C(=O)c1nn(-c2ccc(F)cc2)ccc1=O,x,-5,1%,-0.8,x,
CCC(CCC(=O)NNC(=O)Cc1ccc([N+](=O)[O-])cc1)C(=O)O (stereo unspecified),x,0,0%,-1.5,x,
Fc1ccc(NCc2cccnc2)cc1F,-31,-4,15%,0.8,-14,
CCCCC(=O)NC(=S)Nc1ccc(S(=O)(=O)N2CCCC2)cc1,-27,6,9%,2.4,-2,
N=c1c(C(=O)NCCN2CCOCC2)cc2c(=O)n3ccccc3nc2n1Cc1ccc(F)cc1,x,7,x,-108,x,
O=C(c1cccc2ccccc12)N1CCN(c2ccc([N+](=O)[O-])c(NCc3ccco3)c2)CC1,-32,2,8%,3.6,-5,
Cc1ccccc1Nc1nc(-c2sc(NC(=O)c3ccccc3)nc2C)cs1,-23,-4,1%,-1.6,-3,
O=C(Nc1ccc2oc(-c3ccncc3)nc2c1)c1ccc2c(c1)OCO2,x,0,-4%,-2.4,x,
O=C(CCCC(=O)NC1CCCC1)NC1CCCC1,-13,-6,2%,2.4,2,
CCOC(=O)c1ccc(NC(=O)N2CCN(C3CCCCC3)CC2)cc1,11,-8,-7%,x,-3,
COc1ccc(Br)c(OC)c1C(=O)NC(=O)Nc1nc(C)cc(C)n1,x,18,26%,-1.4,x,
Cn1c(=O)c2cc(S(=O)(=O)NCCC(=O)NC3CCCCCCC3)ccc2n(C)c1=O,-9,7,-1%,-8.6,-10,
CN1C(=O)c2ccc(N3CCCC3)cc2C1=O,-23,4,2%,-5.6,1,
Cc1ccc(S(=O)(=O)NC(=S)NC2CCCCC2)cc1,x,-7,7%,2.9,-4,
CCN(CC)S(=O)(=O)c1ccc(OC)c(NS(=O)(=O)c2ccc(F)cc2)c1,-8,-5,-5%,-1.9,6,
Cc1ccc(N(Cc2ccc(C(=O)NC3CCCCC3)cc2)S(C)(=O)=O)cc1C,5,6,-1%,-2.0,9,
CCOC(=O)C(c1ccccc1)C(Nc1ccc(F)cc1)c1ccccn1 (stereo unspecified),x,-1,0%,4.0,x,
COc1ccccc1NS(=O)(=O)c1cc(NC(=O)c2ccc(=O)[nH]c2)ccc1N1CCOCC1,-22,-5,1%,-5.1,8,
Cn1c(=O)oc2cc(S(=O)(=O)NCCC(=O)N3CCN(c4ccccc4F)CC3)ccc21,x,-6,x,-1.8,x,
C=CCc1cc(OC)ccc1OCCOCCN1CCc2ccccc2C1,x,-1,7%,0.0,-2,
O=C(Cn1c(=O)n(-c2ccccc2)c(=O)c2sccc21)N1CCCC1,-43,-7,-7%,0.4,-3,
COc1ccc([N+](=O)[O-])cc1NC(=O)C(C)OC(=O)/C=C/c1ccco1 (stereo unspecified),-33,11,6%,1.8,-3,
CCC1(C)CC(CCNS(=O)(=O)c2ccc(C)cc2)(c2ccc(C)cc2)CCO1 (stereo unspecified),-22,-3,8%,9.6,-31,
CCN(C(=O)c1ccco1)c1nnc(-c2cccnc2)s1,x,-1,x,0.4,x,
Cc1ccccc1CC1(CO)CCCN(C(=O)CCCN2CCCCC2=O)C1 (stereo unspecified),x,-7,-1%,2.0,3,
CC(C)n1c(/C=C/c2ccccc2)nc2ccccc21,-1,60,10%,1.1,-4,
Cc1ccc(NC2=CC(=O)CC(C)(C)C2)cc1F,x,-3,x,-0.4,x,
CNc1cc(C)c(C#N)c2nc3ccccc3n12,x,-9,x,-45,x,
O=c1[nH]c(CSc2nc3ccccc3o2)nc2c1cnn2-c1ccccc1,-1,49,12%,-1.2,-2,
COc1ccc(NC(=O)CN(C)Cc2c(F)cccc2Cl)cc1S(=O)(=O)N1CCCCC1,x,-10,0%,1.8,2,
CCC1=C(OC(=O)N(CC)CC)N2C(=O)OC(=NCc3ccccc3)[C@]2(C)[C@H]2C1=CC[C@H]1C(=O)N(c3ccccc3)C(=O)[C@H]12,x,-8,3%,1.3,x,
COc1cc(/C=C(\C#N)C(=O)NC2CCCCC2)ccc1OCc1ccc(C(=O)O)cc1,x,72,9%,4.0,0,
O=C(CCl)N(c1ccccc1)C1CCS(=O)(=O)C1 (stereo unspecified),-32,x,3%,22,-3,
CSc1cccc(NC(=O)CCCOc2ccccc2)c1,-23,92,u,4.2,-8,
CC[C@@H](C)[C@H](NC(=O)C1CCN(C(=O)[C@@H](NS(=O)(=O)c2ccc(C)cc2)C(C)C)CC1)C(=O)O,-20,-4,-1%,0.8,13,
C=CCOc1ccc(C2C(C#N)=C(N)N(Nc3ccccc3)C3=C2C(=O)CCC3)cc1OC (stereo unspecified),-22,89,5%,0.7,-7,
COc1ccc(NC(=O)c2ccc(NC(=O)C3CC3)cc2)cc1,x,1,x,1.2,x,
CCOC(=O)c1c(C(=O)OCC)c(C)n(CCc2ccccc2)c1C,-15,2,1%,-0.2,-2,
COC(=O)N1CCN(S(=O)(=O)c2ccc(F)cc2)CC1,2,-6,10%,0.4,2,
Cc1ccc(OCCCN2CCCC2)c(C)c1,-31,-8,-1%,-1.2,3,
CC(C)CNC(=O)C1Nc2ccc(C(F)(F)F)cc2C2C=CCC12 (stereo unspecified),x,-3,5%,-1.4,x,

# (next part)
SMILES,YopH PTP inh,Mtb bLac sens,Mtb H37Rv,RecA intein inh,Arbovirus inh,others
O=C(O)c1cccnc1SCC(=O)N1CCCc2ccccc21,x,-4,2%,-0.7,x,
COc1cccc(N=C2SC(CC(=O)Nc3ccccc3)C(=O)N2Cc2ccccn2)c1 (stereo unspecified),x,-2,9%,6.9,9,
c1ccc(-c2csc(Nc3cccnc3)n2)nc1,-39,95,10%,0.9,-10,
CN1N=C(C(=O)Nc2ccc3c(c2)CCC3)CCC1=O,x,-10,-18%,15,3,
CN(CC(=O)NCCc1ccccc1)S(=O)(=O)c1cccc2nsnc12,-16,-2,-4%,15,1,
CC1CN(C2=NC(=O)/C(=C3/C(=O)N(Cc4ccc(F)cc4)c4ccccc43)S2)CC(C)O1 (stereo unspecified),x,-4,-2%,-2.7,x,
COc1cc(/C=C2\C(=N)N3N=C(C(C)C)SC3=NC2=O)ccc1OCCOc1ccc(NC(C)=O)cc1,x,5,x,3.6,x,
COC(=O)CNc1c(-c2ccccc2)nc2ccc(Br)cn12,4,u,-2%,x,-3,
O=C(Nc1nc2nccc(-c3ccccc3)n2n1)c1ccccc1,x,4,-13%,3.9,x,
CC1CCc2c(sc(NC(=O)c3c([N+](=O)[O-])cnn3C)c2C(N)=O)C1 (stereo unspecified),x,-11,x,-1.6,x,
O=C1C(Cc2ccccc2)S/C(=N/N=C/c2ccco2)N1c1ccccc1 (stereo unspecified),-40,-10,2%,1.1,3,
C=CCn1c(=O)c(C(=O)NCc2ccccc2Cl)c(O)c2ccccc21,x,3,x,-0.9,x,
CC(=O)c1nn(-c2cccc(Br)c2)cc1C(=O)c1ccc(Cl)cc1,-16,9,17%,1.7,-11,
COc1ccc(C2=C/C(=C\c3ccc(OC(C)=O)cc3)C(=O)O2)cc1,x,6,3%,-0.6,-2,
Cc1cccc(NC(=S)NC2CC3CCCC(C2)N3CC(C)C)c1C (stereo unspecified),1,2,-6%,-0.1,1,
CCOc1ccc(N2C(=O)CC(NCc3ccc(F)cc3)C2=O)cc1 (stereo unspecified),-28,-5,-6%,-0.4,11,
COc1ccc2nc(Nc3nc(-c4cc5ccccc5oc4=O)cs3)sc2c1,-1,-2,11%,3.1,-11,
O=C(NNC(=S)NC1CCCCC1)c1cccs1,6,3,9%,-1.0,6,
COCCN(C(=S)Nc1ccc(OC)c(Cl)c1)C1CCN(C(C)C)CC1,x,0,69%,0.9,-8,
Cc1oc2ccc(OCc3ccccc3F)cc2c1C(=O)O,-18,8,7%,1.1,23,
Cc1ccc([N+](=O)[O-])c(OCCCN2CCC(Cc3ccccc3)CC2)c1,x,5,x,0.8,x,
CC(OC(=O)C1CC1)C(=O)Nc1cc(C(F)(F)F)ccc1Cl (stereo unspecified),x,4,-2%,2.8,2,
CCC1=C(OC(=O)N(CC)CC)N2C(=O)OC(=NCC3CC3)[C@]2(Cc2ccccc2)[C@H]2C1=CC[C@H]1C(=O)N(CC(=O)OC)C(=O)[C@H]12,x,2,12%,6.2,x,
Cc1ccc(CNC(=O)CN(C2CCCCC2)S(C)(=O)=O)cc1,-25,0,-4%,0.9,5,
CN1c2ccccc2C(C)(C)C12C=Nc1c(cc(N3CCOCC3)c3ccccc13)O2 (stereo unspecified),2,x,x,46*,-10,
O=c1cc(O)c2sc(Nc3ccc(F)c(Cl)c3)nc2[nH]1,x,2,-3%,-2.0,7,
CC(C)c1ccc(N(CC(=O)NCC2CCCO2)C(=O)CCC(=O)Nc2nccs2)cc1 (stereo unspecified),x,4,x,-1.5,x,
Cc1ccc2nc(SC(C(=O)Nc3ccc(F)cc3)c3ccccc3)[nH]c2c1 (stereo unspecified),-17,11,11%,1.0,-3,
CC1=CC(C)(C(Cl)Cl)C(C)=CC1=O (stereo unspecified),1,1,-8%,-0.8,4,
CCN(CC(=O)Nc1cc(Cl)ccc1C)C(=O)CSCc1ccc(C)cc1,x,3,x,3.0,x,

# Reprinted at random: three records from the list, in no set order.
SMILES,YopH PTP inh,Mtb bLac sens,Mtb H37Rv,RecA intein inh,Arbovirus inh,others
O=C(CNC(=O)C1COc2ccccc2O1)N/N=C/c1cc(Br)c(O)c(Br)c1 (stereo unspecified),x,11,x,3.1,x,
CC1CCc2c(sc(NC(=O)c3c([N+](=O)[O-])cnn3C)c2C(N)=O)C1 (stereo unspecified),x,-11,x,-1.6,x,
COc1ccc(C)cc1NC(=O)NNS(=O)(=O)c1ccc(NC(C)=O)cc1,x,-18,x,-1.3,x,

# Screens (PubChem BioAssay)
